rRNA inh HTS: inhibits bacterial ribosomal RNA function over humanized ribosomes; GFP signal change (wild-type ribosome), % (concentration not given with the values); E. coli WT GFP vs humanized-ribosome RFP mutants, fluorescence, 24 h; active compounds read low; DMSO median 0, no signal -100; 350,000 tested, 1.6% active;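 active = significant combined selectivity score with lowered wild-type GFP, culture density cut under 30%, mutant RFP and density less affected; inactive = any of these conditions unmet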; also: one replicate is shown; some compounds called inactive have numbers as strong as hits
rRNA inh HTS OD600: further read-out of rRNA inh HTS, marked with its call; OD600 change, %; measured here: OD600 growth;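 optical density of the mix in the first replicate; 0 = DMSO median and -100 = no signal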
rRNA inh HTS RFP: recorded beside rRNA inh HTS, whose call it bears; RFP signal change, %; measured here: RFP humanized mutant strains;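 first replicate; 0 = DMSO median and -100 = no signal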
* marks the source's active call; other numbers are inactive results.

Values run as follows: rRNA inh HTS, rRNA inh HTS OD600, rRNA inh HTS RFP
C[C@@H]1CCCCO[C@@H](CN(C)C(=O)Cc2ccccc2)[C@@H](C)CN([C@@H](C)CO)C(=O)c2cc(NC(=O)CCC(F)(F)F)ccc2O1
    2, 4, 1.1
C[C@H]1CN([C@@H](C)CO)C(=O)c2cccc(NC(=O)Nc3cccc4ccccc34)c2O[C@H]1CN(C)S(C)(=O)=O
    -5, -1, 1.9
COc1cccc(NC(=O)N(C)C[C@H]2Oc3ncc(C#Cc4cccnc4)cc3C(=O)N([C@H](C)CO)C[C@@H]2C)c1
    3, 4, 0.4
COCC(=O)N1[C@H](CO)[C@@H]2c3ccccc3N(C(=O)Nc3cc(F)ccc3F)C[C@@H]21
    -1, 6, -6.0
CC(C)CC#Cc1ccc([C@@H]2[C@H]3CN(C(=O)c4ccccn4)CC(=O)N3[C@H]2CO)cc1
    0, 4, -1.4
C[C@H](CO)N1C[C@H](C)[C@@H](CN(C)Cc2ccccc2)OCCCC[C@H](C)Oc2ccc(NC(=O)Nc3ccc4c(c3)OCO4)cc2C1=O
    3, -5, 3.7
C[C@@H]1CN([C@H](C)CO)C(=O)c2cc(-c3ccc(C#N)cc3)cnc2O[C@@H]1CN(C)C(=O)c1ccccc1
    1, -3, 2.1
CC(C)NC(=O)N[C@H]1CC[C@H](CCNC(=O)C2CCCC2)O[C@H]1CO
    2, 3, 0.4
Cc1ccc(S(=O)(=O)N(C)C[C@H]2OCCCC[C@H](C)Oc3ccc(NC(=O)NC4CCCCC4)cc3C(=O)N([C@H](C)CO)C[C@@H]2C)cc1
    0, 5, 0.3
Cc1noc(C)c1S(=O)(=O)N(C)C[C@@H]1OCCCC[C@@H](C)Oc2ccc(NS(=O)(=O)c3cn(C)cn3)cc2C(=O)N([C@H](C)CO)C[C@@H]1C
    2, 9, -1.4
CNC(=O)C[C@H]1CC[C@@H]2[C@@H](COc3ccc(NC(=O)NC4CCCC4)cc3C(=O)N2C)O1
    -1, -7, 0.2
CN(C)CC(=O)N1[C@@H](C#N)[C@H](c2ccc(-c3ccccc3F)cc2)[C@@H]1CO
    1, 11, -4.1
C[C@H]1CCCCO[C@H](CN(C)Cc2ccncc2)[C@@H](C)CN([C@@H](C)CO)C(=O)c2cc(NS(=O)(=O)c3ccccc3)ccc2O1
    1, 8, -1.3
C=CCN=C1NC(c2ccc(Cl)cc2)C(C(=O)OC)=C(C)N1C (stereo unspecified)
    14, 13, 4.0
C[C@@H]1CCCCO[C@@H](CN(C)C(=O)Nc2ccc(C(F)(F)F)cc2)[C@@H](C)CN([C@H](C)CO)C(=O)c2cc(NS(=O)(=O)c3cn(C)cn3)ccc2O1
    3, 1, 2.3
CCCn1cnnc1CNC(=O)[C@@H](Cc1ccccc1)NC(=O)[C@H]1O[C@@H](n2ccc(=O)[nH]c2=O)[C@H](O)[C@@H]1O
    24, 9, 1.8
O=C(C1CCC1)N1CCCCN2[C@H](CO)[C@H](c3ccc(-c4ccncc4)cc3)[C@H]2C1
    2, 20, -1.0
COCC(=O)Nc1ccc2c(c1)OC[C@H](C)N(CCC(F)(F)F)C[C@H](C)[C@@H](OC)CN(C)C2=O
    -1, -3, -2.3
CCCCNC(=O)C1(C)CCC(=O)N1C1CC1 (stereo unspecified)
    -3, 0, -2.5
CO[C@@H]1CN(C)C(=O)c2cc(NS(=O)(=O)c3ccccc3)ccc2OC[C@H](C)N(C)C[C@H]1C
    -1, 6, 1.6
C[C@H]1CCCCO[C@H](CN(C)C(=O)Nc2ccc(F)cc2)[C@@H](C)CN([C@@H](C)CO)C(=O)c2cc(N(C)C)ccc2O1
    -2, 4, 0.5
C[C@H](CO)N1C[C@H](C)[C@H](CN(C)C(=O)CN(C)C)Oc2ncc(C#Cc3cccnc3)cc2C1=O
    3, 6, 0.4
CN1CCCCC1(C)C(=O)NCc1cc(Cl)ccc1F (stereo unspecified)
    8, 14, 1.0
CCCNC(=O)N1C[C@@H](C)[C@@H](OC)CN(C)C(=O)c2cc(NC(=O)CC)ccc2OC[C@H]1C
    2, 3, -2.0
COc1cccc(CNC(=O)[C@@H]2[C@@H](CO)[C@@H]3Cn4c(ccc(-c5cncnc5)c4=O)[C@@H]3N2C)c1
    -1, 0, -1.5
COc1ccc(-c2cc(N3CCN(CCO)CC3)n3nccc3n2)cc1
    14, 26, 1.3
CNC[C@H]1OCCCC[C@@H](C)Oc2ccc(NS(=O)(=O)c3c(C)noc3C)cc2C(=O)N([C@@H](C)CO)C[C@H]1C
    7, 3, 1.2
COc1cccc(-c2cnc3c(c2)C(=O)N([C@H](C)CO)C[C@H](C)[C@H](CN(C)S(=O)(=O)c2ccc(C#N)cc2)O3)c1
    -4, 1, 2.5
C[C@@H]1CN([C@@H](C)CO)C(=O)c2cc(C3=CCCC3)cnc2O[C@H]1CN(C)S(C)(=O)=O
    0, -6, -2.4
O=C(NCC[C@H]1CC[C@@H](NS(=O)(=O)c2cccc(F)c2)[C@@H](CO)O1)C1CCCC1
    3, 7, -3.6
CCCC(=O)Nc1ccc2c(c1)C(=O)N(C)C[C@H](OC)[C@@H](C)CN(C(=O)CC)[C@H](C)CO2
    0, -3, -0.5
CC1(C(=O)NCc2cccc(C(F)(F)F)c2)CCN1C1Cc2ccccc2C1 (stereo unspecified)
    -43, -70, -5.6
Cc1ccc(S(=O)(=O)N(C)C[C@@H]2Oc3ccc(NC(=O)Nc4c(C)noc4C)cc3C(=O)N([C@H](C)CO)C[C@@H]2C)cc1
    -2, -5, 0.8
CCCn1c(=S)[nH]c2cc(C(=O)N3CCN(c4ccccc4)CC3)ccc2c1=O
    -1, 6, 18
C[C@H](CO)N1C[C@H](C)[C@@H](CN(C)S(C)(=O)=O)Oc2c(NC(=O)CCCCCC(=O)Nc3ccccc3N)cccc2C1=O
    5, 5, -2.2
CO[C@H]1CN(C)C(=O)c2cc(NC(=O)NC(C)C)ccc2OC[C@H](C)N(CCC(F)(F)F)C[C@H]1C
    -1, -5, -0.5
C[C@H](CO)N1C[C@H](C)[C@H](CN(C)S(=O)(=O)c2ccc(Cl)cc2)Oc2c(NC(=O)C3CCOCC3)cccc2C1=O
    -1, -1, 2.6
Cn1cnc(CCNC(=O)C[C@@H]2CC[C@H]3[C@@H](COC[C@H](O)CN3C(=O)Nc3ccc(C(F)(F)F)cc3)O2)c1
    -14, -18, 1.6
C[C@@H]1CN([C@H](C)CO)C(=O)c2cc(NS(C)(=O)=O)ccc2O[C@@H]1CN(C)Cc1ccc(C(=O)Nc2ccccc2N)cc1
    1, 12, -2.3
CCS(=O)(=O)N1CCCCN2[C@H](CO)[C@@H](c3ccc(-c4ccc(C(=O)N(C)C)cc4)cc3)[C@H]2C1
    3, -2, -3.5
C[C@H](CO)N1C[C@H](C)[C@@H](CN(C)C(=O)C2CCCCC2)OCCCC[C@H](C)Oc2ccc(NC(=O)Nc3ccc(C(F)(F)F)cc3)cc2C1=O
    0, 9, -1.5
C[C@@H]1CCCCO[C@H](CN(C)C)[C@H](C)CN([C@H](C)CO)C(=O)c2cc(NS(=O)(=O)c3ccc(F)cc3)ccc2O1
    0, 7, -0.9
CC(C)NC(=O)N(C)C[C@H]1Oc2cc(C#C[C@H](C)O)ccc2S(=O)(=O)N([C@H](C)CO)C[C@H]1C
    0, 3, -1.3
Cc1cccnc1C(NC(=O)C1CCN(Cc2ccc(Cl)c(Cl)c2)CC1)c1ccc(Cl)cc1 (stereo unspecified)
    -5, -27, 38
C[C@H]1CN([C@@H](C)CO)C(=O)c2cccc(NS(=O)(=O)c3ccc(F)cc3)c2O[C@@H]1CN(C)S(=O)(=O)c1cn(C)cn1
    3, 5, -0.9
CCN1[C@@H]2c3ccc(C4=CCCC4)c(=O)n3C[C@@H]2[C@@H](CO)[C@@H]1C(=O)NCc1cccc(OC)c1
    -5, -9, 4.5
C[C@@H]1CN([C@@H](C)CO)C(=O)c2cccc(NS(C)(=O)=O)c2O[C@H]1CN(C)CC1CC1
    3, 4, -1.7
C/C=C/c1ccc2c(c1)O[C@@H](CN(C)Cc1ccc(C(=O)O)cc1)[C@H](C)CN([C@@H](C)CO)S2(=O)=O
    -3, -10, -0.1
COc1ccccc1Cc1c(C2CCCCC2)nc2cc(C)c(Br)c(C)n12
    20, 20, 1.0
CCc1nc2ccc(C(=O)Nc3ccc(C(N)=O)cc3)cn2c1N(C)CCC(C)C
    -14, 4, 8.7
COCCNC(=O)C[C@@H]1CC[C@@H]2[C@H](COc3ccc(NC(=O)C4CCCC4)cc3C(=O)N2C)O1
    -4, -20, -0.2
C[C@@H]1CN([C@H](C)CO)C(=O)c2cc(NC(=O)CCN3CCOCC3)ccc2O[C@H]1CN(C)S(=O)(=O)c1cccs1
    0, 1, -1.2
O=C(C1CCC1)N1C[C@@H]2[C@H](c3ccccc31)[C@H](CO)N2C(=O)Cc1ccccn1
    -1, 9, -0.8
C[C@H](CO)N1C[C@H](C)[C@H](CN(C)C(=O)Nc2ccc(F)cc2)OCCCC[C@H](C)Oc2ccc(NC(=O)Nc3ccccc3)cc2C1=O
    2, 3, 0.3
O=C(NCC[C@@H]1CC[C@H](NC(=O)Nc2cc(F)ccc2F)[C@@H](CO)O1)Nc1ccc(Cl)cc1
    -21, -41, 5.0
COc1ccc(Cc2c(C3CCCCC3)nc3cc(C)c(Br)c(C)n23)c(C)c1
    10, 8, 0.4
COc1ccc(NC(=O)N(C)C[C@@H]2Oc3c(NC(=O)C4CC4)cccc3C(=O)N([C@@H](C)CO)C[C@H]2C)cc1
    3, 2, -1.4
O=C(N[C@@H]1CC[C@H](CC(=O)N2CCOCC2)O[C@@H]1CO)c1ccc2c(c1)OCO2
    -2, -1, -1.5
C[C@@H]1CN([C@@H](C)CO)C(=O)Cc2cc(NS(C)(=O)=O)ccc2O[C@H]1CN(C)CC1CCCCC1
    -13, -18, 0.9
C[C@H]1CN([C@@H](C)CO)C(=O)c2cc(NC(=O)Cc3ccccc3)ccc2O[C@H]1CN(C)Cc1ccc(-c2ccccc2)cc1
    6, -6, 16

Some of the entries so far, as comma-separated lines.
SMILES,rRNA inh HTS,rRNA inh HTS OD600,rRNA inh HTS RFP
COc1ccc(-c2cc(N3CCN(CCO)CC3)n3nccc3n2)cc1,14,26,1.3
Cc1ccc(S(=O)(=O)N(C)C[C@H]2OCCCC[C@H](C)Oc3ccc(NC(=O)NC4CCCCC4)cc3C(=O)N([C@H](C)CO)C[C@@H]2C)cc1,0,5,0.3
CNC(=O)C[C@H]1CC[C@@H]2[C@@H](COc3ccc(NC(=O)NC4CCCC4)cc3C(=O)N2C)O1,-1,-7,0.2
Cc1ccc(S(=O)(=O)N(C)C[C@@H]2Oc3ccc(NC(=O)Nc4c(C)noc4C)cc3C(=O)N([C@H](C)CO)C[C@@H]2C)cc1,-2,-5,0.8
C[C@H](CO)N1C[C@H](C)[C@H](CN(C)S(=O)(=O)c2ccc(Cl)cc2)Oc2c(NC(=O)C3CCOCC3)cccc2C1=O,-1,-1,2.6

Of the compounds above, 2 contain bromine:
Values run as follows: rRNA inh HTS, rRNA inh HTS OD600, rRNA inh HTS RFP
COc1ccccc1Cc1c(C2CCCCC2)nc2cc(C)c(Br)c(C)n12
    20, 20, 1.0
COc1ccc(Cc2c(C3CCCCC3)nc3cc(C)c(Br)c(C)n23)c(C)c1
    10, 8, 0.4

Next section
Values run as follows: rRNA inh HTS, rRNA inh HTS OD600, rRNA inh HTS RFP
C[C@H]1CN([C@@H](C)CO)C(=O)Cc2cc(NS(=O)(=O)c3ccc(Cl)cc3)ccc2O[C@@H]1CN(C)Cc1ccc2c(c1)OCO2
    6, 14, 5.4
O=C(NCc1ccccc1Cl)c1ccc2sc([C@@H]3O[C@H](CO)[C@H](O)[C@H](O)[C@H]3O)nc2c1
    4, 18, -0.7
CO[C@@H]1CN(C)C(=O)c2ccc(NC(=O)Nc3ccc(Cl)cc3)cc2OC[C@H](C)N(C)C[C@@H]1C
    -1, 0, 4.0
C[C@@H]1CN([C@@H](C)CO)C(=O)c2cccc(NC(=O)CCCCCC(=O)Nc3ccccc3N)c2O[C@@H]1CN(C)Cc1ccc2c(c1)OCO2
    1, 1, 1.2
CC(C)(C)NC(=O)C1(C)CCC(=O)N1C1CCN(Cc2ccccc2)CC1 (stereo unspecified)
    9, 10, 1.7
CC(C)NC(=O)Nc1ccc2c(c1)C(=O)N([C@@H](C)CO)C[C@H](C)[C@H](CN(C)Cc1ccc(C(=O)O)cc1)O2
    1, 15, -0.8
C[C@@H]1CCCCO[C@@H](CN(C)S(=O)(=O)c2ccc(F)cc2)[C@@H](C)CN([C@H](C)CO)C(=O)c2cc(NC(=O)Nc3ccc(C(F)(F)F)cc3)ccc2O1
    -4, -2, -8.1
CSc1ccccc1NC(=O)C1(C)CCN1C(=O)Cc1ccccc1Cl (stereo unspecified)
    -2, -1, 0.7
C[C@H](CO)N1C[C@H](C)[C@@H](CN(C)S(=O)(=O)c2ccc(Cl)cc2)Oc2c(NC(=O)c3ccncc3)cccc2C1=O
    -1, 2, -3.5
C[C@H]1CCCCO[C@@H](CN(C)Cc2ccncc2)[C@@H](C)CN([C@@H](C)CO)C(=O)c2cc(NS(=O)(=O)c3ccc(F)cc3)ccc2O1
    -2, -11, -2.6
COCC#Cc1ccc2c(c1)O[C@H](CN(C)C(=O)Nc1ccccc1F)[C@@H](C)CN([C@H](C)CO)S2(=O)=O
    0, -7, -2.2
Cc1cccc(CN(C)C[C@@H]2Oc3ncc(-c4ccc(F)cc4)cc3C(=O)N([C@H](C)CO)C[C@@H]2C)c1
    -4, -9, 4.0
COCC#Cc1ccc2c(c1)O[C@@H](CN(C)S(C)(=O)=O)[C@@H](C)CN([C@H](C)CO)S2(=O)=O
    -2, -3, -1.9
O=C(C1CCC1)N1CC(=O)N2[C@@H](CO)[C@H](c3ccc(-c4ccccc4F)cc3)[C@@H]2C1
    2, 6, -1.7

Screening results as filed in PubChem.

An excerpt; the hit share may differ from the screen's.
